Rango-impB inh – qHTS Assay for Inhibitors of Rango (Ran-regulated importin-beta cargo) - Importin beta complex formation; Rango CFP/YFP FRET sensor + importin beta, 45 min; Potency, µM (series often up to 92.2 µM), for inactives: top-dose inhibition of complex formation; 0.031% of 340,000 active; AID 540263, 2011; active = rising FRET ratio curve, often small or poorly fitted; inconclusive = mostly compound fluorescence or quenching in the first reads; inactive = flat curves in all reads;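 note: potency is the fitted concentration of half-maximal effect; 0% = DMSO wells and 100% = buffer wells lacking importin beta; nearly all actives have a fitted effect of over 15% in size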
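Inhibition scored from the CFP 486 nm/YFP 530 nm FRET ratio 45 min after adding 0.125 microM importin beta to 50 nM Rango biosensor preincubated 5 min with compound (room temperature, PBS with DTT, Tween-20, BSA). No-importin wells as positive control.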
miR-21 reporter – qHTS Assay for Modulators of miRNAs and/orActivators of miR-21. 340,000 tested, under 10 active. HeLa miR-21 FLuc reporter, luciferase, 48 h. Potency, µM (titrated, usually from 38.3 µM), for inactives: at the top dose reporter change, positive = more light. AID 2288, 2010; active = well fitted rising curve with a large enough effect; inconclusive = small, poorly fitted or top-dose-only effect; inactive = no such curve, though single readings can be large or run the other way;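 note: % of control where 0% means no effect; miR-21 action dims this reporter so a rising signal means less miR-21 action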
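Compounds were titrated across several concentrations (up to approximately 40 uM) and incubated 48 hours with HeLa miR-21-FLuc reporter cells (miR-21 target sequence downstream of FLuc, endogenous miR-21). Readout was firefly luciferase luminescence after lytic detection reagent.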
GLA inh pH 4.5 – qHTS Assay for Inhibitors of Human alpha-Galactosidase at pH 4.5. Alpha-galactosidase A (Homo sapiens), P06280. purified enzyme, 4-MU-alpha-Gal fluorescence, pH 4.5. activity change, negative = inhibition, % at 105 µM. 230,000 tested, under 10 active; inconclusive = small, poorly fitted or top-dose-only inhibition, or a rising curve; inactive = flat fitted curve, though single readings scatter; no compound was filed as active;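 note: 0% = full activity with enzyme and -100% = basal without enzyme; dose as in the result columns while the protocol names 77 µM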
Target sequence (P06280 whole entry, looked up): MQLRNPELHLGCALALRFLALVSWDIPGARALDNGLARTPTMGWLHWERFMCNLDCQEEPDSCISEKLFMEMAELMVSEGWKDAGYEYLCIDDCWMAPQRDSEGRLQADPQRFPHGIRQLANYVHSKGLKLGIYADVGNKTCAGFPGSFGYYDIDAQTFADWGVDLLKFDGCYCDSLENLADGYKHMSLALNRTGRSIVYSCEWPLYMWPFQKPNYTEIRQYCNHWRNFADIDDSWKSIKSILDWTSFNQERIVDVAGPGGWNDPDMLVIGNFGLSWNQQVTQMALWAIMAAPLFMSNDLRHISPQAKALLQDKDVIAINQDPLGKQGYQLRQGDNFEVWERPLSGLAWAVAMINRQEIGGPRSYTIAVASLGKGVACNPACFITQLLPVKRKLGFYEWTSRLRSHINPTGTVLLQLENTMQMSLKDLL
Rango dissoc inh – qHTS Assay for Inhibitors of RanGTP induced Rango (Ran-regulated importin-beta cargo) - Importin beta complex dissociation; Biochemical FRET Rango-importin beta, RanGTP-induced dissociation; Potency, µM (doses to about 46.1 µM), inactives show top-dose activity change, negative = inhibition; 0.071% of 340,000 active; active means falling FRET ratio curve, often poorly fitted, with flat reads before Ran was added; inconclusive means other falling curves, or compound fluorescence or quenching; inactive means flat or rising ratio curve;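 note: potency is the fitted concentration of half-maximal effect; % of control where 0% means no effect; nearly all actives have a fitted effect of over 45% in size; -100% = wells without RanGTP and RCC1; the record marks most hits as doubtful in a second field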
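Rango FRET biosensor (snurportin-1 IBB flanked by N-terminal EYFP and C-terminal CFP10) at 0.1 uM, with 0.25 uM importin beta in PBS, 1mM DTT, 0.02% Tween-20, 0.1% BSA. 0.6 uM Ran, 2mM GTP and 0.2 uM RCC1 were then added for 45 min at room temperature. Inhibition read as loss of FRET rise.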
* hit, by the source's call; ? = inconclusive; . = not tested or not shown; & = joins results of further samples.

SMILES	Rango-impB inh	miR-21 reporter	GLA inh pH 4.5	Rango dissoc inh
CCOC(=O)[C@H]1[C@H]2COc3ccc(C)cc3[C@@H]2N2C(=O)c3cc(OC)c(OC)cc3NC(=O)[C@@]12C	0.8%	.	.	-18%
COCC(=O)N1CCC(Oc2ccc(C(=O)NCCc3ncccc3C)cc2)CC1	-0.1%	-8%	.	16%
Cc1ccc(NC(=O)N(CCC#N)Cc2ccccc2)cc1	1.1%	0%	-3	-5%
COc1ccc(-c2c(NC(=O)c3ccco3)oc3ccc(Cl)cc3c2=O)cc1	-1.2%	-22%	.	-18%
Fc1ccc(Cn2cc(C(=S)N3CCOCC3)c3ccccc32)cc1	2.6%	0%	-21	0%
CN1CCN(C(=O)c2cc(Cl)cc(Cl)c2)CC1	-4.0%	0%	.	-8%
CCN(CC)C(=O)Oc1ccc2oc(=O)cc(-c3cc4cccc(OC)c4o3)c2c1	6.2%	0%	.	-5%
Cc1occc1-c1nnc(SCC(N)=O)o1	2.8%	-1%	1	-4%
CCC(C)(O)C(=O)N[C@H]1CCCN1C(=O)/C=C/c1ccccc1 (some centres not stated)	0.8%	.	.	-11%
CSc1ncccc1C(=O)OCC(=O)N(C)C	-1.8%	-2%	5	5%
O=C(Nc1ccccc1)c1ccc[n+](Cc2ccc([N+](=O)[O-])cc2)c1	1.2%	-2%	9	1%
CC(C)(CNC(=O)c1ccc(S(=O)(=O)Nc2ccccc2F)cc1)N1CCOCC1	0.9%	.	.	-8%
CC(C)CN(C(=O)CSc1nnnn1-c1ccccc1)c1c(N)n(CC(C)C)c(=O)[nH]c1=O	?	-2%	5	-14%
O=C(c1ccccn1)N1CCCC(N2CCN(c3ccccc3)CC2)C1 (configuration not stated)	-0.2%	-8%	.	-2%
COCc1cc(=O)[nH]c2cc(NC(=O)C(F)(F)F)c(C)cc12	2.1%	-2%	0	1%
O=C(COc1ccccc1)NCc1ccccc1	-1.5%	-13%	2	6%
O=C(CS(=O)(=O)Cc1ccccc1)Nc1nnc(C2CCCCC2)s1	-1.1%	-10%	3	7%
CN(Cc1ccccc1)C(=O)C1CCN(S(=O)(=O)c2cccc3nonc23)CC1	-4.3%	-2%	.	-5%
NS(=O)(=O)c1cccc(NC(=O)CSc2nc3nc(-c4cccs4)cc(C(F)(F)F)c3c(=O)[nH]2)c1	?	-1%	4	1%
CC(C)CCOP(=O)(c1ccc(N(C)C)cc1)C(O)c1ccccn1 (configuration not stated)	0.4%	-6%	-11	-2%
O=S(=O)(c1ccc(S(=O)(=O)N(Cc2ccco2)Cc2ccccc2Cl)cc1)N1CCCC1	0.9%	-6%	3	-14%
COC(=O)c1ccc(OCCCCN(C)Cc2ccccc2)cc1	8.4%	-3%	.	-16%
Cc1ccc(/C=C2\SC(N3CCCC3)=NC2=O)cc1	.	-61%	-2	.
Cc1cc(=O)[nH]c2c1c(C)nn2C1CCCC1	3.5%	-5%	-6	-5%
COc1ccc(NC(=O)/C(=C\c2ccc(OS(=O)(=O)c3ccc(C)cc3)cc2)NC(=O)c2ccccc2)cc1	?	0%	5	2%

Further results:
SMILES	Rango-impB inh	miR-21 reporter	GLA inh pH 4.5	Rango dissoc inh
CN1CCc2nc(NC(=O)c3cccc(S(=O)(=O)N4CCc5ccccc54)c3)sc2C1	?	1%	-10	?
O=C1C=C(NCCc2ccccc2)C2(CCCCC2)O1	0.4%	6%	3	-8%
CCN(CC(=O)Nc1ccc(NC(C)=O)cc1)C(=O)c1ccc(N2CCC(C)CC2)c([N+](=O)[O-])c1	-1.1%	.	.	3%
CC(=O)NC1C(=O)N=C(SCC(=O)Nc2sc3c(c2C#N)CCCCCC3)NC1=O (configuration not stated)	-3.7%	1%	-3	-5%
COC(=O)[C@H]1C[C@@H]1[C@H](NC(=O)c1cc(C)on1)c1ccccc1	4.0%	-9%	6&4	-16%
CCOC(=O)CC(=O)CSc1nc2c(sc(=S)n2-c2ccc(C)c(C)c2)c(=O)[nH]1	-0.2%	21%	.	8%
CC1CC1C(=O)OCC(=O)NCc1ccc(Cl)cc1Cl (configuration not stated)	-0.5%	-5%	3	17%
Cn1cnnc1SCc1ccc(F)c2ccccc12	-0.2%	-17%	5	11%
COc1ccccc1C(=O)N/N=C1/NC(=O)CC(C(=O)Nc2ccccc2)S1 (configuration not stated)	-2.0%	-2%	4	-3%
COc1ccc(C)cc1NC(=O)C1CCN(C(=O)Cc2ccccc2)CC1	1.5%	-3%	8	21%
COc1ccc(OC)c(-c2nn(-c3ccccc3)cc2C(=O)NCC(c2cccs2)N2CCOCC2)c1 (configuration not stated)	-1.6%	.	.	-13%
CN1CCC(OC(=O)c2ccc(Br)cc2)CC1	1.2%	.	.	21%
COc1ccc(C(=O)n2c(N)nc3ccccc32)cc1OC	0.0%	-44%	.	14%
Cc1cc(=O)oc2cc3oc(=O)cc(C)c3cc12	-6.7%	-4%	.	15%
CCOc1ccc(NC(=O)CN(C)C(=O)c2cccc3ccccc23)cc1OCC	-2.5%	.	.	-1%
CCN(CC)CCNc1nc2c(c(=O)[nH]c(=O)n2C)n1CCCc1ccccc1	-0.1%	-10%	.	21%
CC(C)=C(NC(=O)c1ccccc1)C(=O)N/N=C(\C)c1ccccc1O	-1.4%	-6%	-4	?
Cc1ccc(C(=O)c2ccccc2C(=O)O)s1	0.0%	-2%	6	6%
CCOC(=O)C1CCCN(CCC(=O)Nc2ccc(Br)c(C)c2)C1 (configuration not stated)	4.7%	0%	.	23%
O=C(NCC1CCCO1)c1ccccc1NC(=O)c1cccc2ccccc12 (configuration not stated)	3.5%	-1%	3	-3%
CCC(C)C(=O)OC1CCC=C2C=CC(C)C(CCC3CC(O)CC(=O)O3)C21 (configuration not stated)	4.9%	.	.	0%
O=C(CSc1nnnn1-c1cccc(O)c1)NC1CC1	1.3%	1%	.	36%
COC(=O)c1ccc(CNC(=O)c2ccc3c(c2)OCCO3)cc1	-1.4%	-34%	.	2%
CC(C)(C)S(=O)N1Cc2ccc(CO)cc2[C@@H]1CCO (some centres not stated)	-1.3%	.	.	-5%
COc1cccc(-c2ncc3ccccn23)c1	1.9%	-59%	1	-1%

2 of the compounds above, field by field:
> CCOC(=O)C1CCCN(CCC(=O)Nc2ccc(Br)c(C)c2)C1 (configuration not stated)
  Rango-impB inh = 4.7%; miR-21 reporter = 0%; GLA inh pH 4.5 = .; Rango dissoc inh = 23%

> O=C(NCC1CCCO1)c1ccccc1NC(=O)c1cccc2ccccc12 (configuration not stated)
  Rango-impB inh = 3.5%; miR-21 reporter = -1%; GLA inh pH 4.5 = 3; Rango dissoc inh = -3%

(further entries)
SMILES	Rango-impB inh	miR-21 reporter	GLA inh pH 4.5	Rango dissoc inh
CNS(=O)(=O)c1cccc(C(=O)OCC(=O)c2ccc3c(c2)OCCO3)c1	-4.5%	.	.	-2%
O=C(Cc1ccccc1Cl)c1ccccc1	0.7%	.	.	6%
CCN(C(=O)COC(=O)C1CCC(C(C)(C)C)CC1)c1c(N)n(Cc2ccccc2)c(=O)[nH]c1=O (configuration not stated)	1.3%	.	.	23%
CCN(Cc1ccccc1)S(=O)(=O)c1cc(C(=O)OC)n(C)c1	-2.1%	3%	.	14%
NC(=O)C1CCN(C(=O)CSc2nc3ccccc3[nH]2)CC1	-0.3%	-4%	-2	11%
CCC(=O)C1CCCN(C(=O)c2cccc(OC3CCN(S(C)(=O)=O)CC3)c2)C1 (configuration not stated)	2.4%	.	.	0%
Cc1ccc(/C=C/c2onc(C)c2S(=O)(=O)N2CCC(C(=O)N3CCCCC3)CC2)cc1	6.1%	-4%	.	2%
COc1ccc(S(=O)(=O)N2CCCN(S(=O)(=O)c3ccc(OC)cc3C)CC2)c(C)c1	2.6%	-2%	-1	2%
Cc1cc(Sc2ccc([N+](=O)[O-])cn2)ccc1Br	2.4%	.	.	10%
O=C(CN1C(=O)/C(=C/c2cccc(Br)c2)SC1=S)N1CCCC1	5.2%	2%	2	-4%
Cc1ccc(COC(=O)Cc2coc3cc(O)ccc23)cc1	-0.1%	2%	.	-4%
CN(CCc1cn[nH]c1)Cc1nc(Cc2ccccc2)no1	0.8%	1%	1	-18%
O=C1CCCC2=C1C(c1ccco1)Nc1ccc(C(=O)c3ccccc3)cc1N2 (configuration not stated)	-0.8%	19%	-14	-2%
CS(=O)(=O)c1ccc(C(=O)Nc2ccc(N3CCCC3)cc2)c(Cl)c1	-5.1%	-7%	2	1%
Cc1ccc2c(c1)C(CCN)C(=O)N2Cc1ccccc1 (configuration not stated)	1.3%	-13%	.	2%
O=C(CSc1ccc(F)cc1)Nc1ccc(N2CCOCC2)c(Cl)c1	-2.2%	-15%	.	8%
COc1cc(CO)ccc1OCC(=O)N1CCc2ccccc21	-1.8%	-27%	.	13%
COc1ccc(OCC(=O)Nc2ccc3c(c2)nc(CCN2CCCCC2)n3C)cc1	-3.4%	-4%	.	7%
Cc1ccc(NC2CCCN(C(=O)c3cccs3)C2)cc1C (configuration not stated)	-2.3%	-14%	.	17%
Cc1cc(C)cc(Oc2ccccc2C=O)c1	-3.7%	5%	3	-11%
COc1ccccc1CNC(=O)CS(=O)Cc1nc(-c2ccc(OC)c(OC)c2)oc1C (configuration not stated)	1.7%	?	.	-23%
CCOc1ccccc1N1CCN(C(=O)c2ccc(Cl)c(S(=O)(=O)N3CCCCC3)c2)CC1	-1.0%	.	.	1%
CC1(C(=O)OCC(=O)Nc2ncc(Cl)cc2Cl)CC1(Cl)Cl (configuration not stated)	-2.7%	.	.	0%
CCOC(=O)Cn1c(=NC(=O)C2COc3ccccc3O2)sc2cc(S(N)(=O)=O)ccc21 (configuration not stated)	?	-7%	2	1%
CCc1noc(C)c1C(=O)N(Cc1ccccc1)c1c(N)n(CCOC)c(=O)[nH]c1=O	0.4%	.	.	1%

Further structures follow.
SMILES	Rango-impB inh	miR-21 reporter	GLA inh pH 4.5	Rango dissoc inh
CN(C(=O)COC(=O)c1cc(F)c(F)cc1Cl)c1ccccc1	4.7%	-4%	.	-5%
Cc1nc2ccc(NC(=O)c3cccs3)cc2c(=O)n1Cc1ccc(Cl)cc1	1.2%	27%	-11	-7%
Cn1c(SCC(=O)Nc2cccc(Br)c2)nnc1-c1cc2ccccc2o1	-2.6%	2%	6	-3%
O=C(CCS(=O)(=O)c1ccc2c(c1)NC(=O)CS2)NCc1cccs1	-3.0%	1%	.	12%
CCCOc1ccccc1NC(=O)/C=C/C(N)=O	0.0%	17%	-12	11%
COC(=O)[C@@H](NC(=O)N1CCN(C(=O)C2COc3ccccc3O2)CC1)C(C)C (some centres not stated)	1.8%	0%	.	5%
CCCCNC(=O)N1c2ccccc2CC1C (configuration not stated)	2.7%	-15%	-7	-10%
O=C(NCc1cccc(Cl)c1)c1ccc2nc(N3CCOCC3)sc2c1	0.2%	-6%	.	15%
CCOC(=O)c1[nH]c2ccc(OC)cc2c1NC(=O)C(C)N1CCSCC1 (configuration not stated)	.	-8%	4	.
Cc1[nH]c(=O)c(C#N)c(C)c1CCC(=O)NCc1cccc(C(F)(F)F)c1	-3.6%	-13%	.	0%
CCOC(=O)c1nnn(-c2nonc2N)c1COc1ccc(F)cc1	-3.0%	8%	-4	20%
O=C(Nc1cccc(F)c1)c1ccc(S(=O)(=O)NCC2CCCO2)cc1 (configuration not stated)	0.6%	5%	3	-17%
S=c1[nH]nc(-c2ccncc2)n1/N=C/c1ccccc1Cl	0.4%	-3%	4	23%
CCc1cc(=O)[nH]c(SCC(=O)Nc2ccc3c(c2)OCCO3)n1	-2.2%	.	.	-5%
COc1ccccc1N1CC(O)=C(c2nc3ccccc3c(=O)[nH]2)C1=N	?	-7%	3	-16%
COc1ccc(CC(=O)NCc2nnc(SCC(=O)Nc3nccs3)n2-c2ccccc2)cc1	-0.1%	3%	8	-1%

Source: PubChem BioAssay (National Center for Advancing Translational Sciences (NCATS))

Not all compounds are listed; rates above refer to the full screens.
